Sfp PPTase inh = Sfp phosphopantetheinyl transferase inhibition; Q9F4F7; Biochemical Sfp PPTase activity, qHTS; Potency, µM, for the others: max response, negative = inhibition, usual class: inhibitors; actives 3.5% (n = 310,000); active = well fitted inhibition curve with a large enough effect; inconclusive = small, poorly fitted or top-dose-only effect, or another doubt; inactive = no such curve, though single readings can be large or run the other way;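 note: the enzyme is Sfp with the accession as filed and its product quenches rhodamine fluorescence; potency is the fitted concentration of half-maximal effect; 0% = enzyme reaction without inhibitor and -100% = no enzyme wells; top concentration of the series not given in the record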
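Fluorescence-quenching assay: 15 nM Sfp-PPTase preincubated 15 min at room temperature with compound, then 5 uM rhodamine-CoA and 12.5 uM BHQ-2-labelled YbbR peptide added. Fluorescence (ex 525/em 598 nm) read at start and after 30 min; difference gives rate.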
CtBP-E1A inh = CtBP/E1A binding inhibition; AlphaScreen GST-E1A/His-CtBP binding, 1536-well; hits give low values; control for the full effect not named in the record; activity change, % (concentration not given with the values); actives 0.49% (n = 340,000); AID 651724; in the data active means activity change below about -65%; inconclusive means about -30% to -65%; inactive means above about -30%; note: % is set by controls: 0 for no effect and ±100 for the full control effect
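GST-E1A and His-tagged CtBP (125 nM each as 5X stock) were preincubated with pin-transferred compound for 2 h at 37 °C in the dark, then glutathione donor and nickel acceptor beads were added for 1 h before AlphaScreen reading.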
D2 PAM = potentiates the human D2 dopamine receptor allosterically. actives 0.23% (n = 360,000). potentiation, % (no concentration beside the values). AID 624464. DiscoveRx D2 beta-arrestin cells, luminescence, 90 min; 100% = 57 uM dopamine signal; active = potentiation of 50% or more; inconclusive = 30% to 50%; inactive = 30% or less;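 note: compound concentration not given in the record; tested on top of an EC20 dose of dopamine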
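D2 cells co-treated with compound plus 50 nM dopamine (EC20) for 90 min at 37 deg C to detect potentiation. Beta-arrestin recruitment was read as enzyme-fragment luminescence after 1 h at ambient temperature. Full response was set by 57 uM dopamine.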
PINK1 expr mod = changes PINK1 expression | PINK1 immunofluorescence, high-content cytometry, 24 h | Potency, µM (highest dose often 76.6 µM), for inactives: at the highest dose activation (PINK1 increase), most hits filed as activators | actives 0.2% (n = 410,000) | AID 624263; active = well fitted activation curve with a large enough effect; inconclusive = small, poorly fitted or top-dose-only effect; inactive = flat fitted curve, though single readings scatter; cell line not stated here;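 note: potency is the fitted concentration of half-maximal effect; % of control where 0% means no effect; nearly all actives have a fitted effect of over 65% in size; a mitochondrial uncoupler was the plate control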
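Measures PINK1 amount and localization on or inside mitochondria by immunofluorescence. Stable cells get compounds at 5 concentrations for 24 hours before fixation and staining; CCCP controls included.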
Six1-Eya2 inh = Six1/Eya2 interaction inhibition; Q15475+O00167; AlphaScreen GST-Six1/His-Eya2 binding, biochemical; hits give low values; control for the full effect not named in the record; activity change, % (no concentration beside the values); actives 0.56% (n = 360,000); in the data active = activity change below about -65%; inconclusive = about -30% to -65%; inactive = above about -30%; note: % is set by controls: 0 for no effect and ±100 for the full control effect; compound concentration not given in the record
Target sequence (O00167 whole entry, looked up): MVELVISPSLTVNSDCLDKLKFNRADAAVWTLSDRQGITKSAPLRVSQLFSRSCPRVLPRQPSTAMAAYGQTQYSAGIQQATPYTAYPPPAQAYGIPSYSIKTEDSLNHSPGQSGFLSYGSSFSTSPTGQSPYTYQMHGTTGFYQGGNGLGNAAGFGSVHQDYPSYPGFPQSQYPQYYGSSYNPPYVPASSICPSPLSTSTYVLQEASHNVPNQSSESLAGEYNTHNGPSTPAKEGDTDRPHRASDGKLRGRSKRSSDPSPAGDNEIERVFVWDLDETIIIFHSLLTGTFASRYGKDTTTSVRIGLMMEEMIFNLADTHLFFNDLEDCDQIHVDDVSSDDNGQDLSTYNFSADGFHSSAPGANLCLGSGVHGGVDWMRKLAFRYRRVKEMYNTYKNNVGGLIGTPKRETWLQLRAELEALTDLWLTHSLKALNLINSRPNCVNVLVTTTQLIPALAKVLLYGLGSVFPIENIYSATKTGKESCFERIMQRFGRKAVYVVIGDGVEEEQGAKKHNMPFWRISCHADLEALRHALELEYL
Target sequence (Q15475 whole entry, looked up): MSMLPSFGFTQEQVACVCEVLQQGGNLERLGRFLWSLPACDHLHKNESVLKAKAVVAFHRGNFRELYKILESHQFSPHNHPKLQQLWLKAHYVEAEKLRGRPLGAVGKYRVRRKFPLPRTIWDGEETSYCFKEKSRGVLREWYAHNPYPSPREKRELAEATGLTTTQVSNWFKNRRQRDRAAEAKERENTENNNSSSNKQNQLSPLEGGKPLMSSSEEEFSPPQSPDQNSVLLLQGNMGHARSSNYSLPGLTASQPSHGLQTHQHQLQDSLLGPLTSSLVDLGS
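Compounds are tested against tagged Six1 and Eya2 proteins bridged by glutathione donor and nickel acceptor beads; after a one-hour incubation at 37 °C without light, AlphaScreen emission is recorded.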
D2 ag = activates the human D2 dopamine receptor | actives 0.084% (n = 360,000) | DiscoveRx PathHunter D2 beta-arrestin, luminescence, 90 min; 100% = 57 uM dopamine signal | activation, % (test concentration not listed); in the data active = activation above about 40%; inconclusive = about 15% to 40%; inactive = below about 15%; note: compound concentration not given in the record; the text of the record calls up to 30% inactive
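DiscoveRx PathHunter D2 beta-arrestin cells (2,100/well) attached overnight, then compound-stimulated 90 min at 37 C in HBSS/10 mM HEPES/0.1% Tween-20 buffer; beta-galactosidase complementation read by luminescence after 1 h at ambient temperature. Dopamine 57 uM final (EC100) as control.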
TRPV1 potentiator = human TRPV1 potentiation | Q8NER1 | TRPV1-expressing cells, Fluo-8 calcium influx, capsaicin EC20 potentiation; host cell line not named in the record; control for the full effect not named in the record | potentiation, % at 8.33 µM | actives 0.02% (n = 320,000) | AID 540277; active means potentiation above 80%; inconclusive means 30% to 80%; inactive means below 30%; note: 0% is about no effect
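Fluo-8 calcium influx in TRPV1-expressing cells, kinetic read (ex 480/em 520 nm). Compound added and read 3 min for agonist activity, followed by capsaicin at EC20 final and 2 min further read for enhancement.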
An asterisk follows results filed as active; ? = inconclusive; . = no result given; & = joins results of further samples; [ ] = remark or other dose.

SMILES,Sfp PPTase inh,CtBP-E1A inh,D2 PAM,PINK1 expr mod,Six1-Eya2 inh,D2 ag,TRPV1 potentiator
O=C(Nc1c[nH]c(=O)[nH]c1=O)c1cccc(F)c1,8%,-1,-3,0.6%,-2,-4.8,-1
N#Cc1ccc(S(=O)(=O)N2CCN(C(=O)c3cn(-c4ccccc4)nc3-c3cccnc3)CC2)cc1,.,-12,-2,5.2%,-1,-4.6,.
O=C1CC(NCc2ccc(F)cc2)C(=O)N1c1ccccc1 (stereo not given),9%,3,-6,1.6%,5,-3.3,9
CSc1ccc(CNc2ccc(C)cc2)cc1,-5%,-25,-9,5.8%[38.3 µM],?,1.3,4
O=C(N=C1SC2CS(=O)(=O)CC2N1c1ccccc1)c1cccc([N+](=O)[O-])c1 (stereo not given),.,-9,0,-0.9%,-1,-1.4,-2
COc1cc2c(cc1OC)CN(C(=O)C1CCCN1S(=O)(=O)c1ccc(C)cc1)CC2 (stereo not given),2%,-1,-3,0.1%,-8,-4.1,10
C[C@H]1CN[C@@H](CCO)/C1=C\c1ccccc1,.,0,.,0.5%,2,5.1,.
COc1ccc(C(=O)Nc2ccc(-c3ccc(C)o3)cc2)cc1S(=O)(=O)N1CCOCC1,-22%,-12,0,2.0%,-22,2.6,4
COc1ccc(N2CCN(c3nc4c(c(=O)n(C)c(=O)n4C)n3Cc3ccccc3)CC2)cc1,-13%,-24,-6,0.8%,?,-1.4,-1
CC1CCCC(C)N1/N=C/c1ccc(O)c(O)c1 (stereo not given),45µM*,.,24,0.4%,?,-5.4,3
COC(=O)CSc1nc(C)cc(C)n1,14%,0,-6,0.2%,5,-4.6,1
Cc1ccc2c(CN3CC(C)CC(C)C3)cc(=O)oc2c1 (stereo not given),13%,14,-10,11%,6,-1.5,-1
COc1ccc(CCN2CCC(CN3C(=S)NC[C@@H]3CC(C)C)CC2)cc1OC,.,-5,-19,-0.6%,-1,-3.0,.
CC1CC1C(=O)OCC(=O)Nc1cccc(F)c1 (stereo not given),.,3,-3,1.0%,21,-2.4,-21
CC(C)CC(OC(=O)c1cccs1)C(=O)NCc1cccs1 (stereo not given),10%,3,-12,-1.0%,7,-1.9,-35
COc1cc(C2c3cc4c(cc3OC(N3CCCCC3)C2C)OCO4)cc(OC)c1O (stereo not given),.,-2,-10,-2.3%,-15,5.3,.
CN(CC(=O)Nc1ccc(F)c(F)c1F)C(=O)Cc1ccc(S(=O)(=O)N2CCOCC2)s1,.,8,0,-0.4%,1,2.1,.
CC1CCCN(C(=O)CCS(=O)(=O)Cc2ccccc2)C1 (stereo not given),2%,-3,-8,-5.7%[38.3 µM],5,-1.0,-11
COc1ccc(S(=O)(=O)N2CCC(C(=O)NCCC(=O)NCc3ccncc3)CC2)cc1,18%,2,-4,-0.8%,-1,-3.7,-2
CCC1NC(=S)NC(C)=C1C(=O)c1ccccc1 (stereo not given),10%,-7,-4,1.4%,-5,2.8,10
Cc1ccc(CNC(=O)CSc2nnc(CNC(=O)c3ccc(F)cc3)o2)cc1,.,5,-6,-0.2%,3,-2.3,.
CC(=O)C1=C(C)Nc2ncnn2C1c1ccccc1 (stereo not given),7%,1,0,1.2%,2,3.1,1
N#CC1=C(N)N(c2ccccc2)C(c2ccco2)C1(C#N)C#N (stereo not given),9%,-12,-12,-1.8%,-15,-1.5,-5
CCCC(=O)Nc1c2c(nn1-c1ccc(C)cc1C)CSC2,?,8,4,.,5,-0.3,0
COc1ccc(Nc2nc(N)c([N+](=O)[O-])c(N3CCCC3)n2)cc1,-2%,-20,-2,-1.4%,-24,-13,-5
CCOC(=O)CSc1nc2cc3c(cc2cc1C)OCO3,27%,12,-6,-0.8%&-1.5%,7,-5.6,7
CC1(C)C(=O)Nc2ccccc2N1C(=O)COC(=O)C12CC3CC(CC(O)(C3)C1)C2,14%,-4,-17,-0.1%,4,-1.6,4
O=C1c2ccccc2C(O)(c2ccccc2)N1c1ccncc1 (stereo not given),13%,.,3,-0.9%,4,-3.3,14
Cc1cc(C)n2nc(C(=O)N/N=C/c3cccs3)nc2n1,-5%,0,9,0.3%,4,-1.9,7
CCC1CCCN1Cn1cnc2c([nH]c3ccc(C)cc32)c1=O (stereo not given),2%,9,-5,-2.4%,-3,-4.6,0
CCN(CC)S(=O)(=O)c1ccc(C(=O)OCC(=O)N2CCN(C(=O)c3ccco3)CC2)cc1,4%,7,7,-2.8%,6,-0.6,2
COc1cccc(NC(=O)C2CSC3(C)CCC(=O)N23)c1 (stereo not given),.,-5,-2,-2.7%,-7,1.0,4
Cc1ccc(N2C(=S)NC3c4cc(Cl)ccc4OC2(C)C3C(=O)N(C)C)cc1 (stereo not given),-13%,-15,-19,3.7%,-6,-4.2,4
CC1=N/C(=C\c2ccccc2Cl)C(=O)O1,.,-2,-2,1.4%,-22,-2.0,.
Cc1ccc(C)c(S(=O)(=O)NC(Cc2c[nH]c3ccccc23)C(=O)O)c1 (stereo not given),14%,1,-5,-0.2%,4,-0.3,-13
c1ccc(Cn2cnc3ccccc32)cc1,20%,4,0,0.7%[38.3 µM],4,-1.0,1
O=C(Cc1c[nH]c2ccccc12)OCCOC(=O)Cc1c[nH]c2ccccc12,7%,-11,10,2.0%,-8,-0.3,3
Cc1ccc(N(C(=O)Cc2cccs2)C(C(=O)NC2CCCC2)c2ccncc2)cc1 (stereo not given),6%,-11,2,0.9%,1,-2.9,-12
CC(=O)N1c2ccc(S(=O)(=O)N3CCCCC3)cc2CC1C(=O)Nc1ccc(C)cc1 (stereo not given),12%,1,-23,-0.8%,-4,-10,?
COc1ccc(OC)c(C2C3=C(CCCC3=O)Nc3nnnn32)c1 (stereo not given),13%,-5,-14,2.0%,-7,-2.6,2
O=C(c1cc(-c2ccc3c(c2)OCO3)on1)N1CCN(c2ccc(F)cc2)CC1,-19%,7,10,?,-1,-2.9,-14
Clc1ccccc1CSc1snnc1-c1ccccc1,8%,42,-2,0.4%,58,-1.5,6
COc1ccccc1C(=O)Nc1ccc2c(c1)nc(CCNC(=O)c1ccco1)n2C,9%,7,-3,12%,2,-3.1,20
CC(=O)c1c(C)[nH]c(C(=O)OCC(=O)Nc2cccnc2Cl)c1C,.,-4,-3,1.8%,6,0.8,.
CCCCOc1ccc(CSCCN=C(N)N)cc1,-12%,-21,-10,2.5%,1,-2.2,-4
Cn1c2ccccc2c2cc(C(=O)N3CCN(CCO)CC3)sc21,-22%,2,-35,-1.1%,-1,-2.9,11
COc1ccc(Cc2nnc(SCC(=O)c3cccc([N+](=O)[O-])c3)n2C)cc1,-18%,11,-5,1.8%[38.3 µM],-6,-2.0,-32
COc1cccc(C(=O)NCC2CCCN(C(=O)Cc3cccc(C)c3)C2)c1OC (stereo not given),.,-1,-13,1.1%,-10,1.5,.
O=C(Nc1cc(S(=O)(=O)N2CCOCC2)ccc1N1CCOCC1)c1ccc(S(=O)(=O)N2CCCCC2)cc1,-10%,-6,-7,0.2%,1,-3.4,6
CCC(C)C(=O)Nc1cc(OC)c(OC)cc1C(=O)O (stereo not given),10%,5,-3,2.9%,7,-1.6,11
Cc1ccnc(NC(=O)c2cccc(NC(=O)CC3SC(N4CCCCC4)=NC3=O)c2)c1 (stereo not given),.,-1,-4,1.6%,7,-5.7,-12
COc1ccc(S(=O)(=O)Cc2ccc(C(=O)O)o2)cc1,18%,8,-5,3.9%,14,-2.7,-9
Cc1nc2ccn(Cc3ccccc3)c(=O)c2cc1C(=O)N1CCN(c2ccc(F)cc2)CC1,-9%,-7,-3,0.3%&0.8%,0,-5.6,-27
COc1ccc(Cl)cc1NC(=O)C(C)OC(=O)Cn1cc(C(F)(F)F)ccc1=O (stereo not given),.,11,-3,1.0%,1,-1.3,-1
CCc1nnc(NS(=O)(=O)c2ccc(N3C(=O)c4ccccc4C3=O)cc2)s1,0%,-2,-6,4.8%,11,-4.5,12
C=CCN(CC=C)C(=O)C(=O)c1cc(C)n(-c2ccc([N+](=O)[O-])cc2)c1C,11%,-17,-10,0.0%,-20,0.8,.
CC(C)N(C(=O)CSc1nnc(CN2CCCCCC2=O)n1-c1ccccn1)C(C)C,-3%,-17,-11,-0.2%[38.3 µM],-1,-1.8,-11
CCCOc1ccc(C(=O)Nc2ccc(Cl)cn2)cc1,4%,15,-9,4.1%,24,-1.5,11
COc1ccc(NC(=O)CN2CCN(c3ccccc3)CC2)cc1,24%,2,-8,-0.2%,0,-1.0,-11
CCCOc1ccc(NC2=CC(=O)CC(C)(C)C2)cc1,13%,4,-7,3.3%[38.3 µM],0,0.7,0

Part of the list above in another layout.
N#Cc1ccc(S(=O)(=O)N2CCN(C(=O)c3cn(-c4ccccc4)nc3-c3cccnc3)CC2)cc1
  Sfp PPTase inh: .
  CtBP-E1A inh: -12
  D2 PAM: -2
  PINK1 expr mod: 5.2%
  Six1-Eya2 inh: -1
  D2 ag: -4.6
  TRPV1 potentiator: .

COc1ccc(S(=O)(=O)Cc2ccc(C(=O)O)o2)cc1
  Sfp PPTase inh: 18%
  CtBP-E1A inh: 8
  D2 PAM: -5
  PINK1 expr mod: 3.9%
  Six1-Eya2 inh: 14
  D2 ag: -2.7
  TRPV1 potentiator: -9

Going on with the list.
SMILES,Sfp PPTase inh,CtBP-E1A inh,D2 PAM,PINK1 expr mod,Six1-Eya2 inh,D2 ag,TRPV1 potentiator
CCCCn1c(/C=C/c2ccco2)nc2ccccc21,-25%,1,-10,-1.4%,-4,-2.1,-2
CC(=O)Nc1ccc(C(C#N)=Cc2ccc(N(C)CCC#N)cc2)cc1,.,-8,-7,0.7%,-14,-3.7,.
Cc1nc(SCc2ccc(F)cc2)c2oc3ccccc3c2n1,1%,1,-3,-0.5%,1,-4.8,1
O=C1N=C(N2C=CC(=C3C=CNC=C3)C=C2)/C(=C/N=NC(=O)c2ccccc2)S1,-1%,-4,1,0.1%,?,-2.6,-5
O=C(COc1ccccc1)c1cn(CC(=O)N2CCOCC2)c2ccccc12,-8%,0,-8,-0.5%,-3,-3.1,1
Cc1ccc(N2CC(C(=O)OCC(=O)c3c(N)n(CC(C)C)c(=O)n(C)c3=O)CC2=O)cc1 (stereo not given),.,-10,-1,1.5%,4,3.1,6

This is a random part of the collection (roughly 3.7% active in at least one column).
